Sa ugtP lethal – growth inhibition of S. aureus ugtP deletion strain; growth inhibition, % (test concentration not listed); 330,000 tested, 0.54% active; S. aureus RN4220 ugtP deletion, OD600 growth, 16 h; some inactives read as strong as hits; AID 1259309;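 active = z-score under -3 and OD600 up to 0.15 on both plates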;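 also: plate controls were untreated wells for no effect and antibiotic for full effect; wells of about 80 µL received 100 nL stock; the first replicate is given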
BJeLR viability – BJeLR cell viability loss; AID 1554; inhibition, % (no concentration beside the values); 300,000 tested, 0.17% active; BJeLR (HRASV12) viability, CellTiter-Glo ATP luminescence, 48 h; reference of the scale not given here;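 active = replicate mean above 50%; inconclusive = above 50% but judged a plate artefact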;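 also: 50 nL library stock added to about 25 µL; numbers are from one replicate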
PrP UTR inh – inhibition of PrP 5' UTR reporter expression; 340,000 tested, 0.35% active; AID 488862; cell-based PrP 5' UTR mRNA reporter, plate reader; inhibition, % (concentration not given with the values);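 active = every replicate at 50% or more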;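 also: 0 = median of the neutral control wells; tested in H4 reporter cells; numbers are from one replicate; inactives centre near -14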
Mtb hypoxia rep – Mtb hypoxia fluorescent reporter inhibition; M. tuberculosis hypoxia-regulated fluorescent reporter, fluorescence; fluorescence inhibition, % (test concentration not listed); 300,000 tested, 0.1% active; AID 1159583;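 active = 35 to 45% if threefold the growth effect, above 45% if 1.5-fold the growth effect; inactive = the rest, general growth blockers included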;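 also: wells of about 50 µL received 100 nL stock; 0% = vehicle wells and 100% = reference inhibitor wells; whole bacteria with a GFP reporter of the hypoxia response; strong numbers were not always called active; many hits fall short of the cut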
Sa RN4220 lethal – S. aureus RN4220 growth inhibition. OD600, 16 h. inhibition, % (concentration not given with the values). 330,000 tested, 0.33% active;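 active = z-score of -3 or lower and OD600 up to 0.18 on both plates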;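 also: plate controls were untreated cells for no effect and reference antibiotic for full effect; stock transfer was 100 nL into about 80 µL; one replicate is shown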
Autofluor counter – compound fluorescence in toxin protease inhibitor counterscreen; compound autofluorescence counterscreen, microsphere flow cytometry; hits give high values; fluorescence intensity (concentration not given with the values); 360,000 tested, 3.1% active;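 active = at least 3 SD above the mean of all compounds, about 16000 in these data; inconclusive = too few beads counted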;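 also: 100 nL of 1 mM stock went into each well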
Mtb hypoxia rep growth – further read-out of Mtb hypoxia rep, marked with its call; growth inhibition, %; measured here: M. tuberculosis growth (absorbance);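 0% = vehicle and 100% = reference antibiotic; read after six days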
* = called active by the depositor; ? = inconclusive; . = not tested or not shown.

SMILES	Sa ugtP lethal	BJeLR viability	PrP UTR inh	Mtb hypoxia rep	Mtb hypoxia rep growth	Sa RN4220 lethal	Autofluor counter
CCOC(=O)Cc1cc(=O)[nH]c(N=C(NC(=O)c2ccccc2)Nc2ccccc2C(F)(F)F)n1	5.9	.	.	4.7	-1.6	3.4	.
CC(C)CNC(=O)c1ccccc1-c1ccccc1C(=O)O	0.8	7.3	-19.4	20.2	17.0	4.3	9036
COc1ccc(Nc2ccccc2NC(=O)c2ccccc2Br)cc1	0.4	3.7	-6.4	8.3	0.1	3.6	5202
N#Cc1cnn2c1nc(N1CCOCC1)c1ccccc12	-6.2	10.1	-7.9	-6.5	-3.8	-4.4	15280
Nc1nonc1OCCOCCOCCOc1nonc1N	1.4	6.7	-21.3	10.1	5.0	6.6	4276
O=C(Oc1ccccc1/C=C\C(=O)c1cc2ccccc2o1)c1cccc(F)c1	40.2	-3.5	-118.7	11.7	7.4	62.5	6636
CC(NC(=O)c1cccc(F)c1)C1CC2CCC1C2 (configuration not stated)	7.6	0.2	-16.0	.	.	1.2	3110
O=C(O)c1ccc(NCc2nc3ccccc3n2Cc2ccccc2)cc1	3.7	0.6	8.7	10.1	-2.2	-0.1	3532
O=C(C[n+]1cc(-c2ccccc2)n2c1CCCCC2)c1ccc(Cl)cc1	-13.5	3.5	-11.5	-0.6	10.5	-3.2	2586
CN(C)S(=O)(=O)c1ccc(Cl)c(NC(=O)COC(=O)CNS(=O)(=O)c2c(F)cccc2F)c1	2.8	.	-24.2	19.5	39.6	4.6	3528
O=C(NCc1ccco1)C1CC2CCC1C2 (configuration not stated)	-2.8	-1.2	-0.5	.	.	-5.3	12384
CC(C)(C)c1ccc(C(=O)NCC(=O)NN=Cc2ccccc2OCC(=O)O)cc1	3.3	.	.	2.0	-0.5	4.1	.
Nc1c(C2=NCCO2)nnn1Cc1ccccc1	3.1	-7.5	-18.0	2.3	-1.1	0.9	17624*
Cc1cccc(N2CC(C(=O)Nc3nnc(SCC(=O)NCC4CCCO4)s3)CC2=O)c1 (configuration not stated)	1.4	5.9	-9.5	0.2	3.4	1.9	5772
CCC(C)C(NC(=O)C(Cc1ccc(O)cc1)NC(=O)C(N)C(C)C)C(=O)NC(Cc1cnc[nH]1)C(=O)N1CCCC1C(=O)NC(Cc1ccccc1)C(=O)O (configuration not stated)	-4.1	.	.	3.3	-2.0	2.0	.
CC(=NNC(=O)c1ccc(C(C)(C)C)cc1)c1cccnc1	-0.4	.	.	4.1	1.2	3.3	.
CCOP(=O)(OCC)/C(C#N)=C/c1ccoc1	7.3	-0.6	-51.7	3.6	-0.3	2.7	3886
COCCCNC(=O)C(=O)N/N=C/c1cc2c(cc1Br)OCO2	.	-3.3	-11.5	.	.	.	4376
COc1ccccc1NS(=O)(=O)c1ccc(C)c(NS(=O)(=O)c2cc(NC(C)=O)ccc2OC)c1	-3.4	.	-6.3	-2.9	6.7	4.8	3814
O=C(CC1C(=O)NCCN1C/C=C/c1ccccc1)NCCc1cccnc1 (configuration not stated)	6.1	9.6	-32.1	-3.9	14.3	4.3	5591
O=C(CCCNc1ccccc1)NN=Cc1cccs1	-1.5	.	.	3.8	7.4	2.5	.
Cc1c(CCOC(=O)c2ccccc2)sc[n+]1Cc1ccccc1	6.7	7.0	-2.2	1.2	0.6	4.4	10152
CCC(=O)c1ccc(OCC(=O)OC(C)C(=O)NCc2ccc3c(c2)OCO3)cc1 (configuration not stated)	.	11.8	-1.4	.	.	.	?
COc1cc(O)oc1C=Nc1ccc(Oc2ccccc2)cc1	-0.5	11.3	-43.6	0.3	-0.3	-0.4	4469
Cc1c(OC(C)C(=O)N[C@@H](Cc2ccccc2)C(=O)O)ccc2c3c(c(=O)oc12)CCCC3 (some centres not stated)	-1.4	-5.5	-43.5	.	.	3.9	5890
CCOc1ccccc1C(=O)NC(C(=O)OCC(=O)Nc1nnc(-c2ccccc2)o1)C(C)C (configuration not stated)	-17.1	-9.4	-7.8	-0.8	3.6	21.1	2471
Cc1nc2ccccc2c(=O)n1CCN1CCOCC1	4.8	4.0	-27.9	-0.2	7.0	1.0	8027
CC(=O)NS(=O)(=O)c1ccc(NC(=O)C(Sc2ccccc2)c2ccccc2)cc1 (configuration not stated)	6.9	-11.3	-19.5	.	.	-0.9	2201
BrC(/C=N/Nc1nc(N2CCOCC2)nc(N2CCOCC2)n1)=C/c1ccccc1	.	5.7	-4.3	.	.	.	?
Cc1ccc(/C=C2/CCc3c([nH]c4ccccc34)C2=O)cc1	-8.4	1.9	-64.1	-0.5	6.5	3.0	23420*
O=C(NCc1ccccc1)c1cc(S(=O)(=O)N2CCCCC2)ccc1N1CCOCC1	-0.2	4.5	-6.3	0.7	17.3	3.2	4517
Cc1ccccc1N1CCN(C2CCCN(C(=O)c3ccsc3)C2)CC1 (configuration not stated)	5.9	-4.4	-7.1	11.1	13.3	1.8	4680
O=C(O)c1cccc(NC(CNS(=O)(=O)c2ccc(Cl)cc2)c2ccccc2)c1 (configuration not stated)	-3.5	-3.3	-38.7	-7.1	-5.9	-3.9	5133
O=C(NCc1ccccc1)C1CCCN(S(=O)(=O)c2cccc3nonc23)C1 (configuration not stated)	.	0.9	-17.6	.	.	.	7815
O=C(COC(=O)c1ccc(Cl)nc1)Nc1ccc(N2CCOCC2)cc1	2.9	.	0.3	9.9	9.8	1.2	3930
CC1Cn2c(nc3sc4c(c3c2=O)CC(C)(C)OC4)N1CCO (configuration not stated)	-5.0	-3.3	-18.5	7.8	-0.1	5.8	3982
Cc1ccc(-c2cc(C(=O)Nc3ccc(S(=O)(=O)Nc4cc(C)on4)cc3)c3ccccc3n2)c(C)c1	-2.0	4.9	-14.5	.	.	-9.3	3600
CCOC(=O)c1ccc(-c2c(-c3ccc4c(c3)OCO4)noc2-c2ccsc2)cc1F	95.8*	1.8	-28.4	5.1	1.9	-9.8	3698
O=C(NCCCN1CCOCC1)c1onc(CSc2nc3ccccc3[nH]2)c1C(=O)NCCCN1CCOCC1	1.0	8.7	-20.9	9.0	11.9	6.3	4368
Cc1ccc(NC(=O)c2nc3nccc(C)n3n2)cc1S(=O)(=O)N1CCCCC1	7.0	.	-21.0	6.1	-3.6	6.2	6557
COC(=O)c1ccc(CSc2nnc(NC(=O)C3CC(=O)N(c4ccc5c(c4)OCCO5)C3)s2)cc1 (configuration not stated)	-18.6	-7.1	-20.9	4.7	-7.2	-9.0	7810
O=C1OC(Nc2ccc3ncccc3c2)c2ccccc21 (configuration not stated)	-9.4	9.6	-16.4	11.5	2.9	34.2	10222
CCN(CC)S(=O)(=O)c1cc(NC(=O)c2ccc(-n3cncn3)c([N+](=O)[O-])c2)ccc1C	3.1	7.8	-6.1	-0.4	-9.7	1.5	6012
NNC(=O)c1sc2cc(C(F)(F)F)cnc2c1-c1cccnc1	6.5	-2.7	6.8	-0.5	1.1	3.8	3638
CC1CCCCN1C(=O)CSc1nnc(-c2ccco2)o1 (configuration not stated)	-2.8	-3.0	-54.7	-0.5	2.6	-6.3	3808
O=C(Cn1c(CO)nc2ccccc21)Nc1ccc2c(c1)OCCCO2	2.5	.	0.5	-1.6	1.1	0.8	?
COC(=O)c1ccc(/C=C2/SC(=S)N(CCCC(=O)Nc3ccc(O)cc3)C2=O)cc1	7.0	4.5	11.4	6.4	5.8	2.7	4509
Cc1cc2nc(-c3cccnc3SCC(=O)NC(C)C)[nH]c2cc1C	3.4	12.7	-65.3	-0.3	8.5	3.0	4435
C=C(C)CSc1nc2c(cc1C#N)CCC2	10.9	-6.1	-20.4	7.8	7.3	7.6	4166
COCCN(C(=O)COC(=O)c1cnc(C)cn1)c1c(N)n(Cc2ccccc2)c(=O)[nH]c1=O	10.7	-3.0	6.1	2.5	1.5	4.3	4668
CCOC(=O)c1[nH]c2c(c1C)C(=O)CC(c1ccc(OCC)c(OC)c1)C2 (configuration not stated)	6.2	-7.8	-10.5	.	.	-0.1	2732
O=C(N/N=C/c1ccncc1)c1sc2ccccc2c1Cl	.	-2.4	7.0	.	.	.	5786
COc1cccc(CC2(CO)CCCN(Cc3cn[nH]c3-c3cc(C)ccc3C)C2)c1 (configuration not stated)	-1.4	-14.9	-9.3	6.6	1.1	1.8	4554
CCCOc1ccc(C(=O)NC(=S)N2CCN(c3cc4c(cc3F)c(=O)c(C(=O)O)cn4CC)CC2)cc1	95.8*	8.2	-0.7	-0.6	6.6	44.2	4259
C#CCOCCOCCOCCNc1nc(N2CCN(C(=O)Cn3cc(CCO)nn3)CC2)nc(N2CCN(C(=O)Cn3cc(CC(C)O)nn3)CC2)n1 (configuration not stated)	-4.7	.	-36.9	-0.4	2.2	8.3	3715
COc1ccc(-c2onc(C)c2-c2ccc(C(=O)OC(C)C)o2)c(O)c1	-5.0	-4.0	-3.1	1.2	3.4	3.3	4755
O=C1c2cccc3c2N(CCC3)C(=O)C1(F)c1ccccc1 (configuration not stated)	5.0	-3.3	.	9.1	2.5	1.9	5472
COc1ccccc1NC(=O)NNC(=O)CCc1ccccc1	0.7	-0.9	-4.1	-15.2	-9.2	1.8	5736
NCCCCCNC(=O)/C=N\O	.	-2.6	-25.6	.	.	.	8864
COCCn1cnnc1SCC(=O)Nc1sc2c(c1C#N)CCC2	2.0	.	-9.9	3.7	-0.3	3.0	3364
Later entries.
SMILES	Sa ugtP lethal	BJeLR viability	PrP UTR inh	Mtb hypoxia rep	Mtb hypoxia rep growth	Sa RN4220 lethal	Autofluor counter
Cc1ccc(OCC(=O)Nc2ccc3c(c2)OCCO3)cc1C	-1.6	6.1	10.7	-3.8	14.2	-3.3	3256
Cc1cccc(C(=O)NCC(=O)N2CC=C(c3ccccc3)CC2)c1	9.8	.	-5.6	2.9	4.8	0.6	8485
COc1cc(OC)cc(-n2nnnc2SCC(=O)NC2CCCC2)c1	-2.1	-8.6	-16.8	12.4	13.6	-5.6	3440
C(=N\N1CCN(C2c3ccccc3-c3ccccc32)CC1)/c1ccccn1	.	-7.1	-9.3	.	.	.	2163
CC(C)(C)c1ccc(-c2csc(NC(=O)CN3C(=O)NC4(CCCCC4)C3=O)n2)cc1	9.4	6.8	-16.8	9.6	6.0	3.6	3057
COc1ccc(CN2C(=O)c3cccnc3C2=O)cc1S(=O)(=O)N1CC(C)Oc2ccccc21 (configuration not stated)	4.3	-13.3	4.5	-8.1	-6.0	1.0	4471
COc1ccc(-n2nc(C(=O)NCC(=O)N3CCCC(C)C3)c3ccccc3c2=O)cc1Cl (configuration not stated)	-5.8	-2.1	-23.3	-2.7	1.6	5.1	3837
Cc1ccc(OCC(=O)Nc2ccc(Cl)cc2)c([N+](=O)[O-])n1	0.5	.	-21.0	7.4	5.8	-0.3	3327
CCCOc1ccc(Cc2nn[nH]n2)cc1	6.1	2.7	-12.2	.	.	0.8	3554

Random draw from the library, and some 3.9% of all compounds hit somewhere here.
